Screens deposited in PubChem by National Center for Advancing Translational Sciences (NCATS).
StopGo FLuc – FMDV 2A StopGo reporter, firefly signal; Potency, µM (doses to about 57.5 µM), inactives show at the highest dose signal change, negative = less light; AID 1745856; hit rate 0.23% among 120,000; HEK cells with a luciferase reporter of 2A StopGo recoding; active = well fitted falling curve with a large enough effect; inconclusive = small, poorly fitted or top-dose-only effect; inactive = no such curve, though single readings can be large or run the other way; note: nearly all actives have a fitted effect of over 60% in size; overnight with compound
2A Renilla – FMDV 2A StopGo reporter, Renilla signal; HEK cells with a luciferase reporter of 2A StopGo recoding; Potency, µM (top dose mostly 57.5 µM), inactives show at the highest dose signal change, negative = less light; hit rate 0.32% among 120,000; AID 1745857; active means well fitted falling curve with a large enough effect; inconclusive means small, poorly fitted or top-dose-only effect; inactive means no such curve, though single readings can be large or run the other way; note: nearly all actives have a fitted effect of over 55% in size; overnight with compound
* = called active by the depositor; ? = inconclusive; & = joins results of further samples; [ ] = dose if it differs, or a comment. % is set by controls: 0 for no effect and ±100 for the full control effect; potency is the fitted concentration of half-maximal effect. Not a hit list (roughly 0.53% active in at least one column).

SMILES	StopGo FLuc	2A Renilla
Cc1ccc(NC(=O)C2CCN(C(=O)N3CCOc4ccccc43)CC2)c(Cl)c1	?	?
O=C(CSc1nc2c([nH]c3ccccc32)c(=O)n1-c1ccccc1)c1ccccc1	19%	10%
COc1ccccc1/C=C1\Oc2cc(OS(=O)(=O)c3ccccc3)ccc2C1=O	113%[activator]	7%
COc1ccc(NC(=O)COc2ccccc2Cl)c2cccnc12	11µM*	10µM*
COc1cc(C(=O)NCc2coc(-c3cccs3)n2)cc(OC)c1Br	-3%	4%
CCc1c(CN2CCN(c3cccc(C)c3)C(C)C2)csc1C (stereo not given)	-19%	-11%
CCOc1ccc(CNC(=O)c2ccc3nc(C(C)C)oc3c2)cc1	-15%	-11%
COc1ccc(C(=O)Nc2cnc3ccccn3c2=O)cc1	92%[activator]	-11%
CCOc1ccc(C(=O)c2ccc(Cl)cc2)cc1	42%[activator]	20%
O=C(CN1C(=O)NC(Cc2c[nH]c3ccccc23)C1=O)Nc1c(F)cccc1F (stereo not given)	26%	14%

Structural class, the compounds so far containing a carbonyl joined to an NH by a bond outside any ring
SMILES	StopGo FLuc	2A Renilla
Cc1ccc(NC(=O)C2CCN(C(=O)N3CCOc4ccccc43)CC2)c(Cl)c1	?	?
COc1ccc(NC(=O)COc2ccccc2Cl)c2cccnc12	11µM*	10µM*
COc1cc(C(=O)NCc2coc(-c3cccs3)n2)cc(OC)c1Br	-3%	4%
CCOc1ccc(CNC(=O)c2ccc3nc(C(C)C)oc3c2)cc1	-15%	-11%
COc1ccc(C(=O)Nc2cnc3ccccn3c2=O)cc1	92%[activator]	-11%
O=C(CN1C(=O)NC(Cc2c[nH]c3ccccc23)C1=O)Nc1c(F)cccc1F (stereo not given)	26%	14%

The list continues.
SMILES	StopGo FLuc	2A Renilla
COc1ccc(C(=O)Nc2cccc(-c3nc4ccccc4o3)c2C)cc1[N+](=O)[O-]	0%	-3%
Cc1cccc(C(=O)Nc2sc3c(c2C(N)=O)CCCCC3)c1	17%	-1%
CC(C)COc1ccc(C(=O)Nc2nonc2-c2ccc(OC(C)C)cc2)cc1	-15%	0%
CCN(CC)C(=O)c1sc(NC(C)=O)c(C#N)c1C	-2%	19%
Cc1ccc(C(=O)NCC(C)C)cc1N	55%[activator]	7%
CC(OC(=O)c1cc(-c2ccc(F)cc2)nc2ccccc12)C(N)=O (stereo not given)	25%	-4%
O=C(Nc1ccccc1Cl)C1CCCN(c2ncnc3nc[nH]c23)C1 (stereo not given)	-6%	-10%
CC12CN3CC(C)(CN(C1)C3c1c[nH]c3ccccc13)C2=O (stereo not given)	4%	0%
CCc1ccc2oc(C(=O)NCC(c3ccc(OC)cc3)N3CCCCC3)c(C)c2c1 (stereo not given)	-16%	-5%
COc1ccc(Cl)cc1NC(=O)CN(C)C(=O)c1cc(=O)c2cc(C)ccc2o1	-9%	64%[activator]
CC(CCc1ccccc1)NC(=O)Cn1ncc2c3ccccc3n(Cc3ccc(F)cc3)c2c1=O (stereo not given)	-1%	-2%
CNC(=O)C1CCC(Cn2c(=O)c3sccc3n(Cc3cc(C)ccc3C)c2=O)CC1 (stereo not given)	-6%	3%
CCc1ccccc1NS(=O)(=O)c1c(C(=O)N2CCOCC2)c(C)n(C)c1C	-1%	68%[activator]
Cc1ccc(Cn2c(C(=O)Nc3cccc(Cl)c3)cc3sccc32)cc1	7%	1%
CC1CCCN(CCCNC(=O)Cn2ncc3c([nH]c4ccccc43)c2=O)C1 (stereo not given)	-8%	3%
CCCCc1ccc(C(=O)Oc2ccc(C(C)=O)cc2)cc1	3%	-1%
COc1ccc(-c2nc(CCNC(=O)c3ccccc3)cs2)cc1OC	0%	7%
Cc1c(C(=O)N2CCC(c3nc4ccccc4o3)CC2)oc2ccccc12	14%	25%
CCc1ccc(CCC(=O)NC2CC3CCC2C3)cc1 (stereo not given)	5%	0%
COC(=O)c1c(C)[nH]c(C(=O)C(C)Nc2cc(OC)cc(OC)c2)c1C (stereo not given)	14%	20%
CC(C)n1c(SCc2ccc(F)cc2)nc2c1c(=O)n(C)c(=O)n2C	?	?
C=CCSC1=N/C(=C\c2cccc(OC)c2)C(=O)S1	19%	-1%
Cc1ccccc1CN(C)C(C(=O)NC1CC1)c1ccc(F)cc1 (stereo not given)	11%	56%[activator]
COCCN1Cc2cccc(C(=O)Nc3cccc(C)c3C)c2C1=O	-7%	2%
c1ccc(SCc2nnc3sc(-c4ccccn4)nn23)cc1	147%[activator]	27%
O=C(CCc1ncc(-c2ccc(F)cc2)o1)Nc1ccncc1	42%[activator]	11%
CC(C)c1ccc(C2N=C(N)Nc3nc4ccccc4n32)cc1 (stereo not given)	-2%&-7%	-4%&0%
CCCOc1ccc(C(C)NC(=O)c2ccc(C)nc2)cc1OC (stereo not given)	?	?
Cc1ccc(Cl)c(OCC(=O)Nc2sc3c(c2C(=O)N2CCOCC2)CCCC3)c1	22%	65%[activator]
CCCCN(Cc1cc2cc(C)ccc2[nH]c1=O)C(=O)c1cccc(Cl)c1	-7%	0%
COc1ccc2cc(C(=O)NC3CCN(C(C)=O)CC3)[nH]c2c1	13%	-10%
O=C(CCl)NCC12CC3CC(CC(C3)C1)C2	-26%	?
CCCCn1c(=O)[nH]c(=O)c2c1nc(CSc1n[nH]c(C)n1)n2CC	20%	17%
Cc1cc(C(=O)OCC(=O)Nc2ccc(F)cc2)c(C)n1C1CC1	1%	-8%
CCOC(=O)C12CCC(C(=O)O)(CC1)CC2	-8%	3%
CN(C)c1ccc([N+](=O)[O-])cc1	0%	2%
CC(C)(C)c1ccc(-c2nc3cc(N)ccc3o2)cc1	42%[activator]	7%
COc1cc(NC(=O)c2ccc3ccccc3n2)cc(OC)c1OC	162%[activator]	5%
Cc1nn(CC(=O)N(C(C)C)C(C)C)c(C)c1S(=O)(=O)NC(C)(C)C	-3%	16%
COc1ccccc1N1CCN(c2nc(-c3cccnc3)nc3ccccc23)CC1	2%	4%
CC(C)C(=O)Nc1ccc(NC(=O)c2nccnc2N)cc1	0%	10%
Cc1ccccc1-c1nnc(SCC(=O)c2ccc(C#N)cc2)n1C	7%	3%
COc1cccc(NC(=O)Cn2cc(C(=O)c3ccc(F)cc3)c(=O)c3cc(OC)ccc32)c1	?	-24%
CN(C)S(=O)(=O)c1ccc(N2CCOCC2)c(C(=O)N2CCCc3ccccc32)c1	-1%	24%
CCOC(=O)c1c(NC(=O)c2cc(OCC)c(OCC)c(OCC)c2)sc2c1CCCCC2	0%	22%
CCn1nnc2cc(C(=O)Nc3ccc(C)cc3Br)ccc21	124%[activator]	?
COc1cccc(OC)c1C(=O)Nc1c(NC2CCCCC2)c2ccccc2oc1=O	50%[activator]	38%[activator]
CCCC(=O)Nc1ccc(-c2nc(N)sc2C)cc1	0%	9%
CCc1ccc(NC(=O)CC2C(=O)N(c3ccc(OC)cc3)C(=O)N2Cc2cccs2)cc1 (stereo not given)	-15%	11%
NC(=S)Nc1ccc(S(N)(=O)=O)cc1	11%	12%

More results follow.
SMILES	StopGo FLuc	2A Renilla
Cn1c(=O)c2c(ncn2CC(=O)N(CCc2cccs2)Cc2cccs2)n(C)c1=O	18%	16%
COc1ccccc1N1CCN(C(=O)CCS(=O)(=O)c2cc(Br)cc3c2N(C(=O)C2CC2)CC3)CC1	-5%	15%
Cc1ccc(NC(=O)c2c3c(nc4ccccc24)C(=O)N(C2CCCCC2)C3)cc1F	-17%	-13%
CC1(C)CN=C(SCc2ccc(C#N)cc2)NC1	24%	-6%
COc1ccc(CNC(=O)Cn2ncc3c([nH]c4ccccc43)c2=O)cc1	-16%	-6%
O=S(=O)(NCc1ccc(F)cc1)c1ccc2[nH]c3c(c2c1)CCCC3	-12%	296%[activator]
CN1CCc2cccc3c2[C@H]1Cc1ccc(O)c(O)c1-3	?	?
CC(=O)Nc1ccc2oc(-c3ccccc3C)nc2c1	219%[activator]	4%
CCc1nc(SC)ncc1C(=O)NCc1cccc(Br)c1	-5%	29%
C/C=C/Cn1c(NCC)nc2c1c(=O)[nH]c(=O)n2C	8%	6%

Record cards (already shown). Order of screens: StopGo FLuc | 2A Renilla
Entry for `O=S(=O)(NCc1ccc(F)cc1)c1ccc2[nH]c3c(c2c1)CCCC3` = -12% | 296%[activator]
Entry for `Cc1ccc(NC(=O)c2c3c(nc4ccccc24)C(=O)N(C2CCCCC2)C3)cc1F` = -17% | -13%

Grouped by structure: the compounds so far containing a tert-butyl group
SMILES	StopGo FLuc	2A Renilla
CC(C)(C)c1ccc(-c2nc3cc(N)ccc3o2)cc1	42%[activator]	7%
Cc1nn(CC(=O)N(C(C)C)C(C)C)c(C)c1S(=O)(=O)NC(C)(C)C	-3%	16%

More compounds:
SMILES	StopGo FLuc	2A Renilla
FC(F)(F)c1cccc(-n2nnnc2C2(N3CCOCC3)CCCCC2)c1	0%	5%
O=C(CCc1ncc(-c2ccc(F)cc2)o1)N1CCN(S(=O)(=O)c2cccc(Cl)c2)CC1	?	?
CC(O)c1ccc(-c2ccc(CNC3CCCCC3)o2)cc1 (stereo not given)	4%	1%
CCOC(=O)c1nnn(CC(=O)NC(=O)Nc2ccc(F)cc2)c1C(=O)OCC	5%	3%
O=C(Nc1ccc2oc(-c3ccccc3)cc(=O)c2c1)c1ccccc1	130%[activator]	-3%
O=C(Nc1ccccc1F)N1CCN(c2ccc(Cl)cc2)CC1	20%	-11%
CCC(NC(=O)NC12CC3CC(CC(C3)C1)C2)c1ccc(Cl)cc1 (stereo not given)	12%	-3%
COC(=O)c1sc2cccc(F)c2c1S(=O)(=O)N1CCN(c2ccccc2OC)CC1	-12%	6%
COc1ccc(NC(=O)c2c(-c3ccccc3)c(-c3ccccc3)nn(C)c2=O)c(OC)c1	-26%	29%
C=CCOc1ccccc1NC(=O)Cc1ccccc1	8%	17%
Cn1c(=O)[nH]c(=O)c2c1nc(SCCc1ccccc1)n2Cc1ccccc1	-1%	-7%
O=C(NCCc1ccccn1)c1ccc2c(c1)CCCC2	-29%	39%[activator]
COc1ccccc1CC(=O)NCc1nnc2ccc(C(F)(F)F)cn12	-8%	-7%
CCOc1ccc(NC(=O)Cn2c(=O)n(CCc3ccccc3)c(=O)c3c4c(sc32)CN(C(C)=O)CC4)cc1	?	-15%
CCN1C(C(=O)c2ccccc2)=C(OC(=O)COc2ccc(OC)cc2)c2ccccc2S1(=O)=O	-21%	3%
Cc1sc2nc(C(C)N3CCC(C)CC3)[nH]c(=O)c2c1C (stereo not given)	-4%	-1%
CCOc1ccc2c(c1)c(=O)c(S(=O)(=O)c1ccc(C)cc1)cn2Cc1ccccc1Cl	-11%	14%
CCCN(C(=O)Cn1c(=O)oc2cc(Cl)ccc21)c1ccc(C(C)C)cc1	-10%	-2%
COc1ccc2cc(S(=O)(=O)c3ccc(C(C)C)cc3)c(=O)oc2c1	-5%	9%
CC(N(C)c1ccccc1)=[N+](C)c1ccccc1	21%	-3%
CN(C(=O)c1ccc2c(c1)N(Cc1ccccc1F)C(=O)c1ccccc1S2(=O)=O)C1CCCCC1	-12%	142%[activator]
COc1ccccc1C(=O)N1CCN(c2nc3nc(C)ccc3o2)CC1	6%	-11%
C=CCn1c(-n2nc(C)c(C)c2C)nc2c1c(=O)n(CCN1CCCCC1)c(=O)n2C	-11%	-20%
COc1cc(NC(=O)c2ncoc2-c2cccc(Cl)c2)cc(OC)c1	21%	2%
CCOc1ccc(CN2CCN(c3ncnc4sc5c(c34)CC(C)CC5)CC2)cc1 (stereo not given)	-12%	-12%
COc1ccc(Br)cc1CNC(=O)C1CCN(c2nnc(N3CCCC3=O)s2)CC1	8%	14%
CCOC(=O)CSc1nc(C)c2ccccc2n1	-5%	-18%
COc1ccc(OC)c(CNCc2c(C(=O)O)c(C)n(Cc3c(C)cc(C)cc3C)c2C)c1	-20%	138%[activator]
CCCOc1ccc(-c2nonc2NC(=O)c2oc3ccc(Cl)cc3c2C)cc1OCCC	-1%	-1%
CCCc1noc(CN2CCN(c3oc(-c4ccco4)nc3C#N)CC2)n1	4%	7%
COc1ccc(C(=O)N(Cc2nc3nc(C)cc(=O)n3[nH]2)c2ccc(C)cc2)cc1	50%[activator]	-5%
CC(C)CN(CCCNC(=O)CN1C(=O)CSc2ccc(S(=O)(=O)N3CCOCC3)cc21)CC(C)C	-15%	-12%
CCN(C(=O)CN(C)C(c1cccc(F)c1)c1ccccn1)C1CC1 (stereo not given)	3%	42%[activator]
CCc1nnsc1C(=O)NC(C)c1cccc(OC(C)C)c1 (stereo not given)	13%	1%
Cc1nc2cc(NC(C)C(=O)Nc3ccccc3C#N)ccc2o1 (stereo not given)	21%	11%
Cc1ccc(CNC(=O)CN2C(=O)COc3ccccc32)cc1	102%[activator]	14%
